Screens from PubChem.
D2 potentiator: potentiates the human D2 dopamine receptor allosterically | P14416 | DiscoveRx D2 beta-arrestin cells, luminescence, 90 min; 100% = 57 uM dopamine signal | potentiation, % (no concentration beside the values) | hit rate 0.23% among 360,000; active = potentiation of 50% or more; inconclusive = 30% to 50%; inactive = 30% or less;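 note: compound concentration not given in the record; tested on top of an EC20 dose of dopamine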
Target sequence (P14416 whole entry, looked up): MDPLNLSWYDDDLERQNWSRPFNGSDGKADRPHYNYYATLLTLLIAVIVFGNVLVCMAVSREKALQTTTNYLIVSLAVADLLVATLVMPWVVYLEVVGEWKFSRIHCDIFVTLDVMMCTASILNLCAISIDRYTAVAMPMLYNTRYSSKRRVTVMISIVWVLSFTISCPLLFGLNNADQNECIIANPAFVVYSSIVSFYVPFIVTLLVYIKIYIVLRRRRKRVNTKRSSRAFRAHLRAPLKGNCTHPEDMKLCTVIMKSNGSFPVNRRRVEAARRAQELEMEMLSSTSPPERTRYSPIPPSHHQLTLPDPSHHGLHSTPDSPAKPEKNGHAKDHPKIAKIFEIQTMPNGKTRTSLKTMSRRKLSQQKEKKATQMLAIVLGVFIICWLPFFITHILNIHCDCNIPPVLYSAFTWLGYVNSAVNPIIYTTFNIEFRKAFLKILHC
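PathHunter D2 cells, attached overnight at 37 deg C, received compound in DMSO plus dopamine at EC20 (50 nM final) for 90 min at 37 deg C. Beta-arrestin recruitment was read as luminescence after 1 h with detection reagent at ambient temperature.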
D2 agonist: human D2 receptor agonism in beta-arrestin assay; P14416; DiscoveRx PathHunter D2 beta-arrestin, luminescence, 90 min; 100% = 57 uM dopamine signal; hit rate 0.084% among 360,000; activation, % (no concentration beside the values); in the data active = activation above about 40%; inconclusive = about 15% to 40%; inactive = below about 15%; note: compound concentration not given in the record; the text of the record calls up to 30% inactive
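DiscoveRx PathHunter D2 beta-arrestin cells (2,100/well) attached overnight, then compound-stimulated 90 min at 37 C in HBSS/10 mM HEPES/0.1% Tween-20 buffer; beta-galactosidase complementation read by luminescence after 1 h at ambient temperature. Dopamine 57 uM final (EC100) as control.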
TRPML1 ag: agonists of human TRPML1 channel; Q9GZU1; TRPML1-expressing cells, Ca2+ dye fluorescence, FDSS; host cell line not named in the record; reference of the full effect not given here; hit rate 0.12% among 410,000; activation, % (test concentration not listed); in the data active = activation above about 50%; inconclusive = about 30% to 50%; inactive = below about 30%; note: 0% is about no effect; the text of the record puts the active cut at 80%
Target sequence (Q9GZU1 whole entry, looked up): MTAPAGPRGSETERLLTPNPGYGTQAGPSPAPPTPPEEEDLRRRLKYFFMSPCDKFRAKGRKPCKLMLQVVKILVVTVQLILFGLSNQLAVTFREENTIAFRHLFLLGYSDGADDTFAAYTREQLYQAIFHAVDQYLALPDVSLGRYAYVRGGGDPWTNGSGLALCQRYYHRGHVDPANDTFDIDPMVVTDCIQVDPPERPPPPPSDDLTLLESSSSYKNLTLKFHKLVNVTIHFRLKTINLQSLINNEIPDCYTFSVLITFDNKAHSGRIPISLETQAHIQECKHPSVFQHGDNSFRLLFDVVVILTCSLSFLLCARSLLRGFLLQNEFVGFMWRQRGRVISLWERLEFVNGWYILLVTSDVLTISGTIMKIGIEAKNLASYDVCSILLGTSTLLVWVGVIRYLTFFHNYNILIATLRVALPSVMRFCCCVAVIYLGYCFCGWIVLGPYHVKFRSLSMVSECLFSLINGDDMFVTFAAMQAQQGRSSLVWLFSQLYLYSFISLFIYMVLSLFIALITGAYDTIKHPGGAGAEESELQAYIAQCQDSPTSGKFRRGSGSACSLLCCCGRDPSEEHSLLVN
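In this qHTS format, compounds were pin-transferred onto Ca8-dye-loaded TRPML1-DL cells induced with Tet overnight, and intracellular Ca2+ fluorescence was recorded kinetically for 110 s after a 10 s baseline. A subsequent 4uM final 54-4 (EC80) addition followed by a second 110 s read served as the antagonist phase.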
PINK1 modulator: PINK1 expression modulation. Potency, µM (series often up to 76.6 µM), without a hit: at the top dose activation (PINK1 increase), most hits filed as activators. PINK1 immunofluorescence, high-content cytometry, 24 h. hit rate 0.2% among 410,000; active = well fitted activation curve with a large enough effect; inconclusive = small, poorly fitted or top-dose-only effect; inactive = flat fitted curve, though single readings scatter; cell line not stated here;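 note: potency is the fitted concentration of half-maximal effect; % of control where 0% means no effect; nearly all actives have a fitted effect of over 65% in size; a mitochondrial uncoupler was the plate control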
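Decision-based qHTS: stable cells, 24 h exposure to five compound concentrations, CCCP as control. Fixed cells stained for PINK1 plus nuclear, mitochondrial and cell markers, cytometer read.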
CtBP-E1A inh: CtBP/E1A binding inhibition | AlphaScreen GST-E1A/His-CtBP binding, 1536-well; hits give low values; control for the full effect not named in the record | activity change, % (test concentration not listed) | hit rate 0.49% among 340,000 | AID 651724; in the data active means activity change below about -65%; inconclusive means about -30% to -65%; inactive means above about -30%; note: % is set by controls: 0 for no effect and ±100 for the full control effect; compound concentration not given in the record
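In 5 uL wells, 23 nL compound meets equimolar GST-E1A and His-CtBP (5X stock 125 nM each) for 2 h, 37 °C. Beads (5X, 50 ug/mL) then 1 h, 37 °C, dark.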
Six1-Eya2 inh: Six1/Eya2 interaction inhibition; activity change, % (no concentration beside the values); hit rate 0.56% among 360,000; AlphaScreen GST-Six1/His-Eya2 binding, biochemical; hits give low values; control for the full effect not named in the record; Q15475+O00167; in the data active = activity change below about -65%; inconclusive = about -30% to -65%; inactive = above about -30%; note: % is set by controls: 0 for no effect and ±100 for the full control effect; compound concentration not given in the record
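GST-Six1 + His-Eya2 (5X stock: 250/500 nM); Tris pH 8.0, 300 mM NaCl, 0.05% BSA, 0.02% Tween 20; GSH donor/Ni acceptor beads; 1 h 37 °C dark; AlphaScreen readout.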
* marks the source's active call; other numbers are inactive results; ? = inconclusive; / = not tested or not shown; & = joins results of further samples; [ ] = remark or other dose.

SMILES	D2 potentiator	D2 agonist	TRPML1 ag	PINK1 modulator	CtBP-E1A inh	Six1-Eya2 inh
C[C@]12C[C@@H](O)[C@H](O)CC1=CCC1C2CC[C@@]2(C)C1CC[C@@H]2O (stereo partly specified)	-14	-4.7	1.2	-1.0%	-10	-7
O=C1NCN(c2ccccc2)C12CCN(C(c1cc3ccccc3o1)c1nnnn1C1CCCCC1)CC2 (stereo unspecified)	-7	-2.1	-0.1	2.7%	-11	-15
CC1=C(C(=O)Nc2ccccc2)SCCO1	-8	1.9	-0.8	1.5%	3	-4
CC(c1ccccc1)(c1ccccc1)c1ccncc1	0	-7.0	3.1	0.9%	3	16
C=CCn1c(O)c(C=NCCN2CCNCC2)c(=O)[nH]c1=O	-13	-1.9	0.8	-1.2%	-1	9
O=c1[nH]c(=S)n(-c2ccccc2F)c(O)c1C=Nc1ccc(N2CCOCC2)cc1	-2	1.0	8.2	?	-12	-2
COc1ccc2c(c1)[nH]c1c(C)nccc12	-6	-6.5	-0.2&0.6	-0.1%&0.1%	-4	3
Cc1cc(C(=O)OCC(=O)Nc2c(F)cccc2F)c(C)n1C1CC1	6	0.4	-0.3	-5.5%	-1	0
Fc1ccc(CNCCc2ccccc2F)cc1	-41	-3.1	-0.3	1.8%	1	1
CC12CCC3C(CC=C4CC5(CCC43C)OCCO5)C1CCC2=O (stereo unspecified)	2	1.8	-0.4	2.5%	6	1
O=C(c1cn(Cc2ccccc2)c2ccccc12)C1CC1	2	1.0	2.5	2.8%	24	3
Cc1ccc(OCCSC2=NN2c2cc(C)nc(N)n2)cc1	21	-2.1	1.8	1.1%	/	-15
O=C(c1ccc(Cl)cc1)C1CCCN(Cc2ccc3ncccc3c2)C1 (stereo unspecified)	-12	2.0	-0.8	1.1%	5	7
C[C@]12CCC(OC(=O)CCC(=O)O)CC1=CCC1C2CC[C@]2(C)C(=O)CCC12 (stereo partly specified)	-5	-3.4	1.0	1.3%	-20	6
CO[C@H]1CC=C2CCN3CCC4=C(CC(=O)OC4)[C@]23C1	5	-3.5	-0.8	1.1%	10	2
COC(=O)CC1(CC(=O)OC)C(=O)NC(=O)NC1=O	-3	1.0	0.3	1.9%[38.3 µM]	2	4
CC(=O)Nc1ccc2c(c1)CC1(C(=O)N(C)C(=O)N(C)C1=O)C1CCCN21 (stereo unspecified)	23	1.3	0.7	-0.2%	-2	-2
Cn1c(O)c(C=NCCCCCCCCCCC(=O)O)c(=O)n(C)c1=O	-3	-1.0	1.3	0.9%	0	-9
CCC(CO)(C(=O)OC1CC2CCC(C1)N2C)c1ccccc1 (stereo unspecified)	-37	-1.2	/	-1.1%	/	11
COc1ccc2[nH]c3c(c2c1)CCN=C3C	-16	-1.8	0.5	0.4%	?	-70*
Clc1ccc(C2NCCc3[nH]cnc32)cc1 (stereo unspecified)	-20	-3.3	0.8	0.4%	2	-6
CCc1c(C)nc(N)nc1N1N=C1SC	-2	-3.2	-0.8	-1.5%[38.3 µM]	1	-1
C=CCn1c(=O)c(C=Nc2cccc([N+](=O)[O-])c2)c(O)n(CCCC)c1=O	-4	1.5	-0.6	-0.1%	-10	-13
CCCCOC(=O)c1ccccc1N	-4	4.0	-0.1	3.7%	4	8
CN1CCc2cc3c(cc2C1)OCO3	-11	-3.7	0.2	0.2%	-19	2
CCCNC(=O)N1[C@H]2CC[C@@H]1C(C(=O)OC)=C(c1cccc(OC)c1OC)C2	-13	-4.9	0.0	1.1%	-20	10
CCC1(CCC(C)C)C(=O)NC(=O)N(c2ccccc2)C1=O (stereo unspecified)	/	/	-0.5	0.0%	4	9
COc1cccc(CN2CC=C(c3ccc(F)cc3)CC2)c1	/	0.9	0.8	13%	14	11
COP(=S)(OC)Oc1ccc(Sc2ccc(OP(=S)(OC)OC)cc2)cc1	-2	-1.9	0.9	0.3%	-12	11
COc1ccc(N2C(=O)/C(=C/c3cccs3)C(=O)NC2=S)cc1	-6	-20	1.3	-0.7%	-6	-2
CCOP(=O)(OCC)C(NC(=O)CN1C(=O)c2ccccc2S1(=O)=O)C(Cl)(Cl)Cl (stereo unspecified)	0	-6.0	0.0	0.8%	-12	7
COC(=O)[C@]1(C)C[C@H]1[C@H](NP(=O)(c1ccccc1)c1ccccc1)c1ccccc1	-5	-2.5	0.8	1.2%	0	0
Cc1cnn(C2CCN(C)CC2)c1N	-3	1.7	0.3	6.6%[38.3 µM]	-6	0
CCN(CC)c1ccc(/C=C/[N+](=O)[O-])cc1	4	-3.5	71*	8.3%	-5	-4
Cc1cccc(CN2CCCN(Cc3ccc(Cl)cc3)S2(=O)=O)c1	-1	3.1	0.0	0.4%	/	19
Cc1ccc(CN2CCN(Cc3ccccc3)CC2)cc1	-9	-4.0	0.3	2.9%	-10	0
Cc1nc2ccccc2c(=O)n1-c1cccc(O)c1	-6	-3.7	-0.1	1.1%	-1	9
CCNC(=S)NCCC1=c2ccccc2=N/C1=C\c1c(O)n(C)c(=O)n(C)c1=O	-20	-5.0	-0.4	3.8%	/	-3
Cc1ccc2c(c1)NP(=S)(Oc1ccccc1)N2 (stereo unspecified)	7	-1.5	-0.6	3.7%	-2	-18
O=C(NCc1cccnc1)Nc1ccccc1Cl	-8	1.6	0.3	0.6%	-10	3
CCOc1ccc(CC2(CCc3ccncc3)C(=O)NC(=O)NC2=O)cc1	3	-0.7	-0.3	0.9%	-7	-1
O=C(Nc1ccccc1)c1c(O)c2c(n(Cc3ccco3)c1=O)CCCC2	2	1.8	0.1	2.4%	0	11
C[C@]12CCC(=O)C=C1CC[C@@H]1C2CC[C@]2(C)C(=O)CCC12 (stereo partly specified)	-3	-4.3	0.3	-0.9%	/	5
O=C1NC(=O)[C@]2(Cc3ccccc3N3CCN(c4ccccc4)CC32)C(=O)N1Cc1ccccc1 (stereo partly specified)	/	/	-0.8	0.1%	-3	-14
Cn1c(O)c(C=Nc2ccccc2Sc2ccccc2)c(=O)n(C)c1=O	-9	-4.2	1.7	0.2%	14	-5
O=C(/C=C/c1c[nH]c2ccccc12)c1c(O)n(CCc2ccccc2)c(=O)[nH]c1=O	-3	-0.8	14	0.8%	1	9
CC(=O)N1CN2CN(C(C)=O)CC(C(=O)c3ccc([N+](=O)[O-])cc3)(C2)C1	-6	3.7	0.7	-2.3%	7	5
O=C(c1cc(-c2ccncc2)nc2ccccc12)N1CCC2(CC1)OCCO2	-8	-2.4	0.2	2.2%	1	-2

In the list so far, these contain a Cl atom.
SMILES	D2 potentiator	D2 agonist	TRPML1 ag	PINK1 modulator	CtBP-E1A inh	Six1-Eya2 inh
O=C(c1ccc(Cl)cc1)C1CCCN(Cc2ccc3ncccc3c2)C1 (stereo unspecified)	-12	2.0	-0.8	1.1%	5	7
Clc1ccc(C2NCCc3[nH]cnc32)cc1 (stereo unspecified)	-20	-3.3	0.8	0.4%	2	-6
CCOP(=O)(OCC)C(NC(=O)CN1C(=O)c2ccccc2S1(=O)=O)C(Cl)(Cl)Cl (stereo unspecified)	0	-6.0	0.0	0.8%	-12	7
Cc1cccc(CN2CCCN(Cc3ccc(Cl)cc3)S2(=O)=O)c1	-1	3.1	0.0	0.4%	/	19
O=C(NCc1cccnc1)Nc1ccccc1Cl	-8	1.6	0.3	0.6%	-10	3

Next entries.
SMILES	D2 potentiator	D2 agonist	TRPML1 ag	PINK1 modulator	CtBP-E1A inh	Six1-Eya2 inh
N#CC1c2ccccc2C=CN1C(=O)c1ccc(N(CCCl)CCCl)cc1 (stereo unspecified)	-24	-1.9	0.5	1.7%	-14	-2
N#Cc1ccc(OCC(=O)N2CCN(Cc3ccc4c(c3)OCO4)CC2)cc1	10	0.2	-0.8	0.2%	4	-3
COc1cc2[nH]c(=O)n(-c3cccc(Cl)c3)c(=O)c2cc1OC	13	-1.9	-0.1	0.1%	-2	-3
CC12CC[C@H]3[C@@H](CCC4(O)C[C@H](O)CCC34/C=N/NC(=O)c3ccccc3[N+](=O)[O-])C1(O)CCC2C1=CC(=O)OC1 (stereo partly specified)	-6	-2.4	-0.2	-1.5%	4	10
CCCC1(CCC)C(=O)NC(=Nc2ccccc2)NC1=O	-7	-1.8	0.4	-2.9%[38.3 µM]	5	6
Cn1c(O)c(C(=NCCN2CCCCC2)c2ccccc2Cl)c(=O)n(C)c1=O	-12	0.6	-0.1	-4.8%[38.3 µM]	7	-1
O=C(O)c1cccc2c1NC(C(=O)O)C1CC(Sc3ccccc3[N+](=O)[O-])C(Cl)C21 (stereo unspecified)	-22	-2.7	0.0	2.5%	5	?
CCOc1ccc(/C=C2/C(=O)NC(=O)N(CCc3ccc(F)cc3)C2=O)cc1	-1	0.1	-0.4	-0.4%	/	7
CCOP(=O)(CCP(=O)(OCC)OCC)OCC.C[CH2][Sn]([Cl])([Cl])[CH2]C	-29	-4.6	0.6	-6.8%	-17	-4
CC(C)(C)C(=O)C(Oc1ccc(Cl)cc1)n1cncn1 (stereo unspecified)	-14	-1.2	0.4	-0.2%&3.7%	-16	19
CC(N)Cc1c[nH]c2ccc(O)cc12 (stereo unspecified)	0	8.2	-0.6	0.0%	-7	-2
Nc1c(Br)cc([N+](=O)[O-])cc1[N+](=O)[O-]	20	7.8	-0.9	0.3%	-5	-4
Cn1c(O)c(C=NC2CCCCCC2)c(=O)[nH]c1=S	-3	-3.0	-0.2	2.6%	15	5
CC(Cc1ccsc1)NCc1cn[nH]c1-c1ccc(F)cc1F (stereo unspecified)	-7	-3.8	-0.8	-0.9%	2	-4
FC(F)(F)c1ccccc1CNCCc1c[nH]c2ccccc12	-16	6.5	3.0	5.2%	/	-25
O=C(c1cc(-c2ccccc2)nc2ccccc12)N1CCC2(CC1)OCCO2	-11	0.8	1.2	6.3%[38.3 µM]	5	1
Cc1cc(OCc2ccc([N+](=O)[O-])cc2)c2c3c(c(=O)oc2c1)CCCC3	-3	-3.4	0.0	-1.1%	-2	2
COc1ccc(C(C)=O)cc1CC(C(=O)c1ccc(C)c(C)c1)N(C)C (stereo unspecified)	-7	2.8	9.0	1.5%	3	-24
COc1ccccc1NC(=O)c1cn(CCC#N)nc1-c1cccc(Cl)c1	?	2.7	/	5.6%	/	0
COC1=CC2[C@@H]3Cc4ccc(OC)c(O)c4[C@]2(CCN3C)CC1=O (stereo partly specified)	/	1.1	0.4	-0.4%	-10	10
COc1ccc(-n2nnnc2C(C2CC2)N2CCC3(CC2)C(=O)NCN3c2ccccc2)cc1 (stereo unspecified)	-10	-6.1	-0.4	0.1%	3	11
O=C1NC(=O)C(=Cc2ccc(-c3ccc(S(=O)(=O)N4CCOCC4)cc3)o2)C(=O)N1	4	-0.5	-0.7	3.7%	5	-2
Fc1ccccc1CN1CCN(c2ccc(Cl)cc2)CC1	-25	-5.1	/	14%	-1	-7
CS(=O)(=O)c1ccc(C2=C(CNC(=O)c3ccc([N+](=O)[O-])cc3)[C@H]3CC[C@@H](C2)N3Cc2ccccc2)cc1	-5	-5.6	0.1	0.5%	-19	-2
O=c1[nH]c(=O)n(-c2cccc3ccccc23)c(O)c1/C=N/N1CCCCC1c1cccnc1 (stereo unspecified)	-7	0.5	0.7	1.0%	/	4

The list is partial; count on the stated rates, not on these rows.
